Source: PubChem BioAssay
UCH37 DUB inh: inhibitors of human UCH37 deubiquitinase, primary screen, biochemical, Ub-AMC cleavage, fluorescence; Ubiquitin carboxyl-terminal hydrolase isozyme L5 (Homo sapiens), Q9Y5K5; purified proteasome/UCH37; inhibition, % (concentration not given with the values); 330,000 compounds, 0.33% hits; AID 588478, 2011;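 active = mean of two replicates above 20%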;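 also: 0% = compound-free wells with enzyme and 100% = wells lacking proteasome; stock transfer was 100 nL into about 20 µL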
Target sequence (Q9Y5K5 whole entry, looked up): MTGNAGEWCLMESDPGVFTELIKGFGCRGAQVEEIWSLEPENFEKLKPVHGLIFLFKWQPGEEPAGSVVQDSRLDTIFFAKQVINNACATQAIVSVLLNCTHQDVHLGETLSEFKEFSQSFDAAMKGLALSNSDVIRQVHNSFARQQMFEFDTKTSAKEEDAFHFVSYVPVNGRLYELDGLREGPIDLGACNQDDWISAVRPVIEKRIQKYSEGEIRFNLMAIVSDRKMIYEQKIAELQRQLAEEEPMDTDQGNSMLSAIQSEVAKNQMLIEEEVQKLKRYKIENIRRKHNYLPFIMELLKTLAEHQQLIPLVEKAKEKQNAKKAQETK
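Material: Human UCH37 enzyme supplied as purified proteasome complex | Schedule: 30 min preincubation with enzyme, 25 min cleavage at room temperature | Detection: AMC fluorescence 355/460 nm | Measure: % inhibition of Ub-AMC cleavage fluorescence | Controls: Wells without proteasome as full block, compound-free enzyme plus substrate as uninhibited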
E coli growth: E. coli growth inhibition, primary screen, OD600. AID 1053175, 2014. OD600 absorbance (test concentration not listed). 330,000 compounds, 0.21% hits. Escherichia coli growth, 23 h; stronger effect = lower value;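 active = OD600 absorbance below the run mean of sample wells minus 3.6 SD, in any replicate, cut at about 0.56 in these data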;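 also: stock transfer was 300 nL into about 60 µL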
Active calls of the source: *.

For CCOc1ccc(C=NNC(=O)c2ccc(F)cc2)cc1CN1CC2CC(C1)c1cccc(=O)n1C2 (stereo not given) the results were UCH37 DUB inh 4.2 and E coli growth 0.648.
O=C(NCc1cccnc1)C(=O)NN=Cc1ccc([N+](=O)[O-])cc1 was read as UCH37 DUB inh 8.3 and E coli growth 0.661.
Screening O=C(NN=Cc1ccc(C(F)(F)F)cc1)c1ccncc1 returned UCH37 DUB inh 7.6 and E coli growth 0.62.
Screening CCOc1cc(C=NN2CCN(Cc3ccccc3)CC2)ccc1O returned UCH37 DUB inh 5.1 and E coli growth 0.653.
`COc1cc(C(C)=NN2CCN(Cc3ccc(C)cc3)CC2)ccc1O` gave UCH37 DUB inh 2.7 and E coli growth 0.688.
`COCc1cc(C)nc(OCC(=O)NN=Cc2ccc(-c3cc([N+](=O)[O-])ccc3Cl)o2)c1C#N` gave UCH37 DUB inh 1.8 and E coli growth 0.714.
Screening CC(CC(=O)Nc1ccc2c(c1)OCO2)=NNC(=O)C(c1ccccc1)c1ccccc1 returned UCH37 DUB inh 1.3 and E coli growth 0.714.
`COc1cc(C=NNC(=O)c2ccoc2C)ccc1O` gave UCH37 DUB inh 5.0 and E coli growth 0.677.
Screening O=C(NN=Cc1ccc(Br)s1)c1cccc([N+](=O)[O-])c1 returned UCH37 DUB inh 3.5 and E coli growth 0.7.
`CCc1nnc(NN=Cc2c(Cl)cccc2Cl)n1N` gave UCH37 DUB inh 7.2 and E coli growth 0.706.
For Cc1cc(C(=O)NN=Cc2c(C)nn(-c3ccccc3)c2C)c(C)o1 the results were UCH37 DUB inh 2.1 and E coli growth 0.673.
`Cc1cc(NN=Cc2ccc(O)cc2O)nc(N2CCOCC2)n1` gave UCH37 DUB inh 10.0 and E coli growth 0.692.
`Cc1nn(-c2ccccc2)c(C)c1C=NNC(=O)CSc1nnc(SCc2ccc(Cl)cc2)s1` gave UCH37 DUB inh 6.2 and E coli growth 0.75.
`S=c1[nH]nc(-c2ccco2)n1N=Cc1ccccc1Cl` gave UCH37 DUB inh 6.8 and E coli growth 0.738.
Screening COc1ccc(C=Nn2c(SC)nnc2-c2ccccc2)c(OC)c1OC returned UCH37 DUB inh -3.9 and E coli growth 0.738.

Overlap with the part before: 2 compounds; new compounds follow.
`S=c1[nH]nc(-c2ccco2)n1N=Cc1ccccc1Cl` gave UCH37 DUB inh 6.8 and E coli growth 0.738.
Screening COc1ccc(C=Nn2c(SC)nnc2-c2ccccc2)c(OC)c1OC returned UCH37 DUB inh -3.9 and E coli growth 0.738.
`COC(=O)NN=Cc1cn(CCCOc2ccccc2)c2ccccc12` gave UCH37 DUB inh 4.2 and E coli growth 0.672.
Screening Cc1cc(C=NNc2ccc([N+](=O)[O-])cn2)c(C)n1-c1ccccc1 returned UCH37 DUB inh 6.1 and E coli growth 0.692.
Screening CCNC(=S)NN=Cc1cccs1 returned UCH37 DUB inh 9.2 and E coli growth 0.702.
Screening Cc1cc(=O)[nH]c(NN=Cc2c(C)nn(-c3ccccc3)c2Cl)n1 returned UCH37 DUB inh 6.6 and E coli growth 0.652.
For CCCCNC(=O)CC1S/C(=N/N=Cc2ccc(OC)cc2)NC1=O (stereo not given) the results were UCH37 DUB inh 0.4 and E coli growth 0.724.
`CCOC(=O)C(=NO)C(C)=NNC(=O)C(=O)Nc1ccc(Cl)cc1` gave UCH37 DUB inh 4.4 and E coli growth 0.648.
Screening CC(CCc1ccc2c(c1)OCO2)=NN=C(N)SC1CC(=O)N(c2ccc(Cl)cc2)C1=O (stereo not given) returned UCH37 DUB inh 1.7 and E coli growth 0.664.
For CN1/C(=C/C=NNC(=O)c2ccc([N+](=O)[O-])cc2)C(C)(C)c2ccccc21 the results were UCH37 DUB inh 9.0 and E coli growth 0.703.
`CC(=NNC(=O)CNC(=O)C(c1ccccc1)c1ccccc1)c1ccco1` gave UCH37 DUB inh 1.5 and E coli growth 0.673.
CSc1ccc(C=Nn2c(C)cc(C)cc2=O)cc1 was read as UCH37 DUB inh 10.7 and E coli growth 0.662.
Screening CC(CC=NNC(=O)COc1cc(Cl)ccc1Cl)c1ccccc1 (stereo not given) returned UCH37 DUB inh 2.1 and E coli growth 0.731.
For S=C(NN=Cc1cccc2ccccc12)Nc1cccc(Cl)c1 the results were UCH37 DUB inh -1.1 and E coli growth 0.7.
Fc1ccccc1COc1ccccc1C=NNc1nc(N2CCCC2)nc(N2CCCC2)n1 was read as UCH37 DUB inh 0.8 and E coli growth 0.676.
For CCCCCCC(=O)NN=Cc1ccco1 the results were UCH37 DUB inh 2.8 and E coli growth 0.677.
CCOc1ccc(CC(=O)NN=Cc2cccnc2)cc1OCC was read as UCH37 DUB inh -0.2 and E coli growth 0.666.
Screening Cc1cccc(C=NNC(=O)c2ccc(NC(=O)c3ccc(F)cc3)cc2)n1 returned UCH37 DUB inh 5.0 and E coli growth 0.649.
Screening COC(=O)NN=Cc1cccc(OCCSc2ccc(Cl)cc2)c1 returned UCH37 DUB inh 3.6 and E coli growth 0.636.
Cc1ccsc1C=NNc1cn[nH]c(=O)c1Cl was read as UCH37 DUB inh 8.6 and E coli growth 0.649.
CCOc1ccc(C=NNC(=O)CCC(=O)Nc2ccc(F)cc2)cc1 was read as UCH37 DUB inh 1.8 and E coli growth 0.677.
Screening COc1ccc(C(=O)NN=Cc2ccc3cccc(O)c3n2)cc1 returned UCH37 DUB inh -2.5 and E coli growth 0.659.
CCCn1c(N=Cc2ccccc2O)nc2ccccc21 was read as UCH37 DUB inh 2.1 and E coli growth 0.718.
For COc1cc(OC)c(OC)cc1C=NNC(=O)c1ccc(=O)n(C)c1 the results were UCH37 DUB inh 14.1 and E coli growth 0.685.
For O=C(CNc1cccc2ccccc12)NN=Cc1ccc([N+](=O)[O-])o1 the results were UCH37 DUB inh 9.1 and E coli growth 0.579.
For NC(CCN1CCCCC1)=NO the results were UCH37 DUB inh 5.8 and E coli growth 0.706.
For C(=NN1CCN(c2ccccc2)CC1)c1cccs1 the results were UCH37 DUB inh 2.8 and E coli growth 0.657.
For COc1ccccc1C=Nn1c(N)c(S(=O)(=O)c2cccs2)c2nc3ccccc3nc21 the results were UCH37 DUB inh -113.4 and E coli growth 0.723.
`Cc1cccc(NC(=O)C23CCC(C)(C(=NO)C2)C3(C)C)c1` (stereo not given) gave UCH37 DUB inh 6.3 and E coli growth 0.716.
For Cc1cc(C(=O)NN=C/C=C/c2ccc(Br)cc2)n[nH]1 the results were UCH37 DUB inh 9.7 and E coli growth 0.768.
Screening C=CCc1cc(C=NNC(=O)CSc2nnc(CCCc3ccc(OC)cc3)o2)cc(OC)c1O returned UCH37 DUB inh 6.4 and E coli growth 0.843.
Screening O=C(CNC(=O)C(c1ccccc1)c1ccccc1)NN=Cc1cccc(O)c1 returned UCH37 DUB inh 0.5 and E coli growth 0.7.

The list goes on, starting with the last two of the part before.
Screening C=CCc1cc(C=NNC(=O)CSc2nnc(CCCc3ccc(OC)cc3)o2)cc(OC)c1O returned UCH37 DUB inh 6.4 and E coli growth 0.843.
Screening O=C(CNC(=O)C(c1ccccc1)c1ccccc1)NN=Cc1cccc(O)c1 returned UCH37 DUB inh 0.5 and E coli growth 0.7.
CC(CC(=O)Nc1cccc(Cl)c1)=NNC(=O)Cc1ccc(Cl)cc1 was read as UCH37 DUB inh 1.8 and E coli growth 0.717.
For CC(=O)Nc1ccc(C=NNC(=O)CNS(=O)(=O)c2ccc([N+](=O)[O-])cc2)cc1 the results were UCH37 DUB inh 0.8 and E coli growth 0.678.
Screening CN=C1SC(CC(=O)Nc2ccccc2F)C(=O)N1N=Cc1ccc(O)c(OC)c1 (stereo not given) returned UCH37 DUB inh 1.5 and E coli growth 0.687.
Screening CCOc1ccc2ccccc2c1C=Nn1cncn1 returned UCH37 DUB inh 7.3 and E coli growth 0.702.
For CN(Cc1c(C(=O)NN=Cc2cccc(F)c2)nnn1-c1nonc1N)c1ccccc1 the results were UCH37 DUB inh 2.6 and E coli growth 0.68.
For Cc1cc(C(=O)NN=C/C(Cl)=C/c2ccccc2)c(C)o1 the results were UCH37 DUB inh 3.1 and E coli growth 0.681.
For COc1cccc2cc(C(=O)Nc3ccccc3C)c(=NNS(=O)(=O)c3ccccc3)oc12 the results were UCH37 DUB inh 6.0 and E coli growth 0.685.
`Cc1cc(C(=O)NN=Cc2cccc(OC(=O)c3ccco3)c2)n[nH]1` gave UCH37 DUB inh 2.8 and E coli growth 0.655.
CCn1cc(C=NNC(=O)c2cc(-c3ccccc3OC)nc3ccccc23)c(C)n1 was read as UCH37 DUB inh 7.2 and E coli growth 0.66.
CC(=NOCC(=O)NN=Cc1ccccc1)c1cccs1 was read as UCH37 DUB inh 2.2 and E coli growth 0.637.
For CN(C)c1nc(NCc2ccccc2)nc(NN=Cc2ccc(Cl)cc2Cl)n1 the results were UCH37 DUB inh 6.3 and E coli growth 0.714.
`COc1ccc(CC(=O)Nc2ccc(C(C)=NNC(=O)c3cccc([N+](=O)[O-])c3)cc2)cc1` gave UCH37 DUB inh 1.9 and E coli growth 0.752.
Cn1cccc1C=NNC(=O)CSc1nc2ccccc2n1C was read as UCH37 DUB inh 8.6 and E coli growth 0.674.
Screening O=C(CNC(=O)c1ccc2c(c1)OCO2)NN=C(Br)/C=C/c1ccccc1 returned UCH37 DUB inh -1.6 and E coli growth 0.666.
Screening COc1ccc(/C=C(\NC(=O)c2ccccc2)C(=O)NN=Cc2cccnc2)cc1 returned UCH37 DUB inh 9.6 and E coli growth 0.669.
COc1ccc(NS(=O)(=O)c2cccc(C(=O)NN=Cc3c(F)c(F)c(F)c(F)c3F)c2)cc1 was read as UCH37 DUB inh -1.5 and E coli growth 0.701.
For O=C(CN(CCc1ccccc1)S(=O)(=O)c1ccc(Cl)cc1)NN=Cc1ccccc1C(=O)O the results were UCH37 DUB inh 1.0 and E coli growth 0.664.
`COc1ccc(C=NNc2nc(Nc3ccccc3)nc(N3CCCCC3)n2)cc1OC` gave UCH37 DUB inh 7.2 and E coli growth 0.741.
For Cc1occc1C(=O)NN=C/C=C/c1ccccc1[N+](=O)[O-] the results were UCH37 DUB inh 4.3 and E coli growth 0.67.
For CCOC(=O)NN=Cc1ccc(OCCSc2ccc(Cl)cc2)c(OCC)c1 the results were UCH37 DUB inh -0.7 and E coli growth 0.727.
Screening Cc1cc(C)nc(NN=Cc2c(C)oc3ccccc23)n1 returned UCH37 DUB inh 1.7 and E coli growth 0.661.
CC(C)(C)C(=O)Nc1ccc(C(=O)NN=Cc2ccccc2OC(=O)c2ccc(Cl)cc2Cl)cc1 was read as UCH37 DUB inh 4.3 and E coli growth 0.75.
Screening NC(CCN1CCOCC1)=NO returned UCH37 DUB inh 2.0 and E coli growth 0.686.
Screening O=c1c(=Cc2ccco2)sc2n1CN(c1ccccc1)CN=2 returned UCH37 DUB inh 8.4 and E coli growth 0.769.
Screening O=C(O)c1cccc(NC(=S)NN=Cc2cccc(O)c2)c1 returned UCH37 DUB inh 3.8 and E coli growth 0.686.
CCC(=NNC(=O)c1c[nH]c2ccccc12)c1cccs1 was read as UCH37 DUB inh 6.3 and E coli growth 0.656.
For Cc1[nH]c2ccccc2c1C=NNC(=O)c1cc(C(C)(C)C)[nH]n1 the results were UCH37 DUB inh 4.8 and E coli growth 0.656.
`CS(=O)(=O)NC1c2cccc3cccc(c23)C1Sc1nncn1N=Cc1ccco1` (stereo not given) gave UCH37 DUB inh 5.0 and E coli growth 0.703.
`O=C(NN=Cc1ccc2c(c1)OCO2)c1cccnc1` gave UCH37 DUB inh 7.2 and E coli growth 0.708.
`CCOc1ccccc1C=NOCC(=O)NCc1ccc(F)cc1` gave UCH37 DUB inh 2.7 and E coli growth 0.692.

Four compounds out of the list, arranged by formula weight, descending:
For O=C(CN(CCc1ccccc1)S(=O)(=O)c1ccc(Cl)cc1)NN=Cc1ccccc1C(=O)O the results were UCH37 DUB inh 1.0 and E coli growth 0.664.
COc1ccc(NS(=O)(=O)c2cccc(C(=O)NN=Cc3c(F)c(F)c(F)c(F)c3F)c2)cc1 was read as UCH37 DUB inh -1.5 and E coli growth 0.701.
Screening O=C(O)c1cccc(NC(=S)NN=Cc2cccc(O)c2)c1 returned UCH37 DUB inh 3.8 and E coli growth 0.686.
Screening Cc1cc(C)nc(NN=Cc2c(C)oc3ccccc23)n1 returned UCH37 DUB inh 1.7 and E coli growth 0.661.

(next part)
Screening Cc1ccc(S(=O)(=O)Oc2ccccc2C=NNC(N)=S)cc1 returned UCH37 DUB inh 3.3 and E coli growth 0.735.
`COc1ccccc1/C=C\C(=O)NCC(=O)NN=Cc1ccc(O)cc1O` gave UCH37 DUB inh 0.8 and E coli growth 0.721.
O=C(Cn1cnc2ccccc21)NN=Cc1cccc([N+](=O)[O-])c1 was read as UCH37 DUB inh 2.7 and E coli growth 0.706.
`Cc1ccc(C=NN2C(=S)SC(C)(C)C2N(O)C(=O)Nc2ccc([N+](=O)[O-])cc2)cc1` (stereo not given) gave UCH37 DUB inh 8.0 and E coli growth 0.705.
`CC(=NNC(=O)C1CC1)c1ccc(Cl)c(Cl)c1` gave UCH37 DUB inh 2.3 and E coli growth 0.69.
For CSc1sc(C)cc1C=NO the results were UCH37 DUB inh 1.2 and E coli growth 0.72.
For COc1cc(C=NNc2nn3cnnc3c3ccccc23)cc(OC)c1OC the results were UCH37 DUB inh -0.1 and E coli growth 0.698.
Screening CCN(C=Nc1sc2c(c1C#N)CCCCC2)CC returned UCH37 DUB inh 2.6 and E coli growth 0.756.

3 compounds drawn at random from the list so far:
For CCCCNC(=O)CC1S/C(=N/N=Cc2ccc(OC)cc2)NC1=O (stereo not given) the results were UCH37 DUB inh 0.4 and E coli growth 0.724.
Screening Cc1cccc(C=NNC(=O)c2ccc(NC(=O)c3ccc(F)cc3)cc2)n1 returned UCH37 DUB inh 5.0 and E coli growth 0.649.
`CCc1nnc(NN=Cc2c(Cl)cccc2Cl)n1N` gave UCH37 DUB inh 7.2 and E coli growth 0.706.

An excerpt. The share of hits here may be higher or lower than overall.
